MgrA DNA FP: S. aureus MgrA activity modulators, primary screen, biochemical, S. aureus Newman, fluorescence polarization | inhibition, %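 (about 10 µg/mL by stock and volumes)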 | AID 602314, 2012 | MgrA-DNA binding | hit rate 0.13% among 84,000;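 active means above 50% in either of two replicates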;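 further: 0% = protein plus DNA without compound and 100% = DNA alone without protein; higher means less MgrA bound to DNA so lower polarization; one replicate is shown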
S aureus helic: inhibitors of S. aureus replicative helicase, primary screen, biochemical, fluorescence unwinding readout; replicative DNA helicase (DnaC/DnaB), Staphylococcus aureus; hit rate 0.05% among 120,000; inhibition, %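 (tested at about 80 µM)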; purified S. aureus helicase, fluorescence unwinding assay; about half of the hits fall short of the stated cut;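 active means both duplicates at 50% or more, or one of them with a favoured structure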;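 further: 0% = mean of negative control wells and 100% = mean of positive control wells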
The depositor's hits bear a star; x = not tested or not shown; & = joins results of further samples.

SMILES | MgrA DNA FP | S aureus helic
CC1CC(C)CN(CCCNC(=O)CCn2cnc3onc(-c4ccc(F)cc4)c3c2=O)C1 (stereo not drawn) | x | 14.0
Cc1cccc(-n2ncc3c(N4CCc5ccccc54)ncnc32)c1 | x | 14.0
C#CCn1c(C2CCCCC2)nc2ccccc21 | 0.6 | 5.0
Cc1ccc(NC(=S)/N=C(\N)C(C)C)cc1 | x | -23.0
CC(C)CCn1c(C(C)O)nc2ccccc21 (stereo not drawn) | 2.0 | 3.0
COC(=O)c1cnc(N2CCOCC2)nc1C(F)(F)F | 0.6 | x
CC(=O)N=c1sccn1CC(O)c1ccccc1 (stereo not drawn) | x | 20.0
CCCCC1(CN2CCN(Cc3ccccc3)CC2)C(=O)N(c2ccccc2)N(c2ccccc2)C1=O | 0.0 | x
O=c1ccc2cc(S(=O)(=O)Nc3ccc(F)cc3)ccc2o1 | x | -22.0
CC1(C)CC(=O)C2=C(C1)N1C(=C(C#N)C2c2ccccc2F)N=C(N)c2ccccc21 (stereo not drawn) | x | 19.0
O=C1c2ccccc2C2N1CCCN2S(=O)(=O)c1cccc(C(F)(F)F)c1 (stereo not drawn) | -2.3 | x
CC(C(=O)O)n1c2ccccc2c2cn[nH]c(=O)c21 (stereo not drawn) | x | 17.0
N#CC1=C(N)Oc2c(sc3ccccc23)C1c1ccco1 (stereo not drawn) | 13.2 | -36.0
O=C(CCCSc1nc(-c2ccco2)cc(C(F)(F)F)n1)NC1CCCC1 | 1.4 | -16.0
Cn1nccc1NC(=O)c1ccc(F)cc1 | -4.1 | x
COc1ccccc1N1Cc2ccccc2C1 | x | 1.0
CN(C)S(=O)(=O)c1ccc(NC(=O)CN(C)S(=O)(=O)c2ccc(Cl)cc2)cc1 | x | -6.0
Cc1cc(Cl)ccc1Oc1ncccc1N | 0.8 | x
NCC1CCN(Cc2ccccc2Cl)CC1 | 3.8 | -10.0
Cn1nc(-c2ccccn2)sc1=S | 2.5 | x
CN(C)S(=O)(=O)c1cc(Br)c(Br)s1 | -0.2 | x
CC(=O)N(CCC(c1ccc(C)cc1)c1ccco1)Cc1ccccc1 (stereo not drawn) | x | 7.0
NC(=O)C1CCN(C(=O)C2CCN(S(=O)(=O)c3ccc(-n4cnnn4)cc3)CC2)CC1 | 4.2 | 11.0
CC(C)CCn1c(=O)c2[nH]c(=S)[nH]c2n(CC(C)C)c1=O | 6.7&20.0 | 4.0&-3.0
Cc1noc(NS(=O)(=O)c2ccc(NC(=O)CCN3C(=O)c4ccccc4C3=O)cc2)c1C | -1.6 | x

More compounds:
SMILES | MgrA DNA FP | S aureus helic
CC(OC(=O)c1ccc2c(c1)C(=O)N(Cc1ccco1)C2=O)C(=O)c1ccccc1 (stereo not drawn) | x | -5.0
Cc1cc(C)n(-c2nc3cc(C(=O)c4ccccc4)ccc3nc2Cl)n1 | x | 1.0
O=C(O)c1ccccc1SCC(=O)C12CC3CC(CC(C3)C1)C2 | -0.2 | 19.0
CSc1nnc(C2CCCN(CC(=O)N3CCCC3)C2)n1C (stereo not drawn) | -1.2 | 18.0
CC(C)N1CCc2c(sc(NC(=O)CCOc3ccccc3)c2C(N)=O)C1 | x | -26.0
Cn1ncc2c(NN3C(=O)CCC3=O)ncnc21 | 6.3 | x
Cc1ccc(S(=O)(=O)N2CCCC2C(=O)Nc2nccs2)cc1 (stereo not drawn) | x | 13.0
O=C(/C=C/c1ccco1)OCC(=O)c1ccc(Cl)s1 | x | -4.0
O=C(CSc1nnc(COc2ccccc2Cl)o1)NC12CC3CC(CC(C3)C1)C2 | x | 28.0
Cc1cc(Cl)ccc1NC(=O)CCC(=O)N/N=C1\CCCCC1C (stereo not drawn) | x | 1.0
O=C(NCC1COc2ccccc2O1)Nc1ccc(Cl)cc1 (stereo not drawn) | -1.8 | x
Cc1cc(NC(=O)CN2CCc3sccc3C2c2cccs2)no1 (stereo not drawn) | x | -15.0
CNc1ccccc1C(C)(C)c1cc(-c2ccc(Cl)cc2)no1 | x | 11.0
Cc1ccc(C(=O)N2CCCC2)cc1NC1=NC2CS(=O)(=O)CC2S1 (stereo not drawn) | x | 0.0
COc1ccc(C2CC(C(F)(F)F)n3nc(C(=O)N4CCN(c5ccc(F)cc5)CC4)c(Cl)c3N2)cc1 (stereo not drawn) | 0.3 | x
CCc1cc2c(=O)c(-c3nc4ccccc4n3C)c(C(F)(F)F)oc2cc1O | x | -13.0
Cc1ccc(S(=O)(=O)c2cn[nH]c2-c2ccc(Cl)cc2)cc1 | 1.0 | x
COc1cc(CNC2CCCCC2C)cc(OC)c1 (stereo not drawn) | 0.8 | 8.0
COc1cccc(NC(=S)N2CCC3(CC2)CC(=O)c2ccccc2O3)c1 | -1.5 | 5.0
COC(=O)C1Cc2ccccc2CN1S(=O)(=O)c1ccc(C)cc1 (stereo not drawn) | 0.0 | -6.0
S=c1[nH]c2cc(Cl)ccc2s1 | 1.7 | x
CCOc1ccc(NC(=O)CC2SC(=O)N(c3ccccc3)C2=O)cc1 (stereo not drawn) | x | 9.0
O=C(c1cc(-c2ccc(Br)cc2)nc2ccccc12)N1CCCC1 | -0.4 | -19.0
COC(=O)c1ccc(C2=NC(C)(C)CO2)cc1 | -0.5 | x
CCOC(=O)C1=C(CN(C)Cc2ccccc2)NC(=O)NC1c1ccccc1 (stereo not drawn) | x | -13.0

Next section
SMILES | MgrA DNA FP | S aureus helic
CCOC(=O)C(O)(c1ccc(N)cc1)C(F)(F)F (stereo not drawn) | -2.2 | x
CC1(C)Cc2nc3sc4c(NN)ncnc4c3cc2CO1 | 3.1 | 15.0
Cc1ccc2c(c1)cc(CN(Cc1ccco1)S(=O)(=O)c1ccccc1)c1nnnn12 | 8.3 | 8.0
OCC[n+]1c(-c2ccccc2)csc1Nc1ccccc1 | -2.2 | -4.0
COc1cc(NC(=O)CCc2c(C)nc3cc(-c4cccc(F)c4)nn3c2C)cc(OC)c1OC | x | 9.0
COc1cccc(CN(C)C(=O)c2cccnc2SC)c1 | x | 10.0
COC(=O)n1c(=O)oc2cc(S(=O)(=O)Nc3ccc(C)cc3)ccc21 | x | -1.0
NC(=NC(=O)c1cccs1)c1cccs1 | -1.8 | x
CC1CCN(Cc2ccc(NC(=O)COCc3cc(-c4ccco4)on3)cc2)CC1 | x | 17.0
CCOC(=O)c1cc(-c2ccccn2)nc2c1c(=O)n(CC(=O)OC)c(=O)n2Cc1ccccc1 | x | 11.0
CCOC(=O)C1C(c2ccc(C#N)cc2)C(C(=O)OCC)C(O)(C(F)(F)F)NC1(O)C(F)(F)F (stereo not drawn) | -1.4 | x
NC(N)=NS(=O)(=O)c1ccc(NC(=O)OC2CCCC2)cc1 | 1.8 | 16.0
COc1cc(OC)c(NC(=O)C2CCCN(c3ncnc4onc(C)c34)C2)cc1Cl (stereo not drawn) | x | 8.0
CS(=O)(=O)Nc1nc2n(n1)C(c1ccccc1)C=C(c1ccccc1)N2 (stereo not drawn) | 1.8 | -6.0
COc1ccccc1Nc1nnns1 | 3.4 | x
CCOC1(OCC)N=C(N)c2ccccc21 | 7.0 | 20.0
O=c1c2[nH]c3ccccc3c2nc(SCCC2OCCO2)n1-c1ccccc1F | x | 3.0
CC(=O)N(CN1C(=O)C2CC=CCC2C1=O)c1cccc(Cl)c1 (stereo not drawn) | x | -16.0
COC(=O)c1cn(NC(=O)C2CCCCC2)c(=O)c2ccccc12 | 0.2 | 11.0
CC(C)CCOC(=O)CCN1C(=O)/C(=C/c2ccccc2)SC1=S | -0.9 | x
Cc1cc(NCCO)cc(=O)n1Cc1ccco1 | x | 5.0
COC(=O)c1ccc(N=C2SC(C(=O)Nc3ccccc3OC)CC(=O)N2C)cc1 (stereo not drawn) | 2.2 | x
O=C(O)CCCn1c(=S)[nH]c2cc3c(cc2c1=O)OCO3 | -1.0 | 5.0
Cc1c(Nc2cc(=O)oc3ccccc23)c(=O)n(-c2ccccc2)n1C | x | -17.0
CC(C)(C)c1ccc(OCC(=O)Nc2ccc3c(c2)oc2ccccc23)cc1 | 1.8 | 3.0

In another format: four of the compounds above.
COc1cc(OC)c(NC(=O)C2CCCN(c3ncnc4onc(C)c34)C2)cc1Cl (stereo not drawn)
  MgrA DNA FP = x | S aureus helic = 8.0
CS(=O)(=O)Nc1nc2n(n1)C(c1ccccc1)C=C(c1ccccc1)N2 (stereo not drawn)
  MgrA DNA FP = 1.8 | S aureus helic = -6.0
COc1ccccc1Nc1nnns1
  MgrA DNA FP = 3.4 | S aureus helic = x
CCOC1(OCC)N=C(N)c2ccccc21
  MgrA DNA FP = 7.0 | S aureus helic = 20.0

Further compounds follow.
SMILES | MgrA DNA FP | S aureus helic
CC1CCCCN1C(=O)COC(=O)c1ccc2[nH]c3c(c2c1)CCCC3 (stereo not drawn) | x | -15.0
CC1(C(=O)N2CCOCC2)CCC(C(=O)N2CCOCC2)C1(C)C (stereo not drawn) | x | -5.0
OCCCNc1nc(-c2cccs2)nc2ccccc12 | x | -6.0
Cc1cccc(N2CCN(CCNC(=O)CCn3c(=O)c4cccn4c4cccnc43)CC2)c1C | 0.9 | 16.0
CCCC(=O)N1CCCC(c2nc(-c3cccs3)no2)C1 (stereo not drawn) | 0.8 | -9.0
Cc1nnc(N/N=C/c2c(O)n(-c3cccc(C(F)(F)F)c3)c(=O)c3ccccc23)[nH]c1=O | x | -29.0
CCc1ccc2[nH]c3nc(=S)[nH]nc3c2c1 | 0.1 | 10.0
Cc1cccc(N(Cc2cc(=O)n3ccccc3n2)C2=NC3CS(=O)(=O)CC3S2)c1 (stereo not drawn) | 0.8 | 13.0
O=C(Nc1nc(-c2ccncc2)cs1)C1COc2ccccc2O1 (stereo not drawn) | x | -13.0
CC1CCN(CCCNC(=O)c2coc3nc4ccccc4nc23)CC1 | x | 7.0
CC(C)OC(=O)c1cccc(-c2nn[nH]n2)c1 | x | 6.0
Cc1oc2ncnc(N3CCCCC3)c2c1C(=O)N1CCOCC1 | x | -25.0
O=C(CSc1ncc(C(F)(F)F)cc1Cl)N(c1ccccc1)C1CCS(=O)(=O)C1 (stereo not drawn) | x | -6.0
CCOC(=O)c1sc(NC(=O)CN2C(=O)c3ccccc3C2=O)c(C(=O)OCC)c1C | x | 15.0
Nc1nc(-c2ccccc2)nn1C(=O)c1cccs1 | 1.6 | -4.0
Nc1nc(COc2cccc3cccnc23)nc(Nc2ccccc2)n1 | x | 9.0
S=c1nc2[nH]c3ccccc3c2n[nH]1 | 4.9 | -13.0
O=C(NC(Cc1ccccc1)C(=O)Nc1nc(-c2ccccc2)cs1)Oc1ccccc1 (stereo not drawn) | -2.9 | 17.0
COc1ccc(N2C(=O)/C(=C/c3ccc(OCC(=O)O)c(Br)c3)C(=O)NC2=S)cc1 | 13.8 | x
COCCn1c(Cc2ccccc2)nnc1SCC(=O)N(C)C | 1.1 | 1.0
COc1ccc(Br)c2c1-c1nc(NC(C)=O)sc1C2 | x | 12.0
Cc1cc2ncc(C(=O)Nc3ccccc3)c(C)n2n1 | -3.8 | 6.0
CSc1ccc(/C=C2\SC(=O)N(C)C2=O)cc1 | -2.3 | 3.0
CCC(=O)NC(=S)Nc1cc(-c2nc3ncccc3o2)ccc1C | 1.1 | 4.0
Cc1nc(C)c(-c2n[nH]c(=S)n2-c2ccccc2C(F)(F)F)s1 | 0.5 | x

Of the compounds above, 4 have a COOH group.
SMILES | MgrA DNA FP | S aureus helic
CC(C(=O)O)n1c2ccccc2c2cn[nH]c(=O)c21 (stereo not drawn) | x | 17.0
O=C(O)c1ccccc1SCC(=O)C12CC3CC(CC(C3)C1)C2 | -0.2 | 19.0
O=C(O)CCCn1c(=S)[nH]c2cc3c(cc2c1=O)OCO3 | -1.0 | 5.0
COc1ccc(N2C(=O)/C(=C/c3ccc(OCC(=O)O)c(Br)c3)C(=O)NC2=S)cc1 | 13.8 | x

(cont.)
SMILES | MgrA DNA FP | S aureus helic
NC(=O)c1ccccc1NCC(=O)c1ccc(F)cc1 | 6.0 | x
CCC(=O)Nc1ccc(-c2csc(-c3ccccc3)n2)cc1 | x | -8.0
Cc1cc(C(=O)CSc2ncnc3sc4c(c23)CCCC4)c(C)n1Cc1ccco1 | 4.7 | 7.0
CSc1ccc(C(N)=O)s1 | 0.4 | x
O=C(Nc1ccccc1)N1CCN(c2ccc(F)cc2)CC1 | 0.1 | x
COCCCn1c(-c2cc3ccccc3o2)csc1=Nc1ccccc1F | x | 11.0
CC1Cc2ccccc2N1C(=O)CC(=O)N1c2ccccc2CC1C (stereo not drawn) | -2.2 | 18.0
NCC[C@H](O)C(=O)NC1CC(N)C(OC2OC(CN)C(O)C(O)C2O)C(O)C1OC1OC(CO)C(O)C(N)C1O (stereo partly drawn) | 0.3 | x
CC1CCCCN1c1ccc(N)cc1 (stereo not drawn) | 10.8 | 15.0
CC(=O)Nc1ccc(NC(=O)c2ccc(I)cc2)cc1 | -0.7 | -2.0
CN(C1CCCCC1)S(=O)(=O)c1ccc(C(=O)Nc2sccc2C#N)cc1 | x | -23.0
COc1ccc(-c2nnc(-c3ccc(S(=O)(=O)c4ccccc4)cc3)o2)cc1OC | 0.9 | -5.0
CS(=O)(=O)N(c1cccc(C#N)c1)S(C)(=O)=O | 0.8 | x

Looked up one by one from the list above:
SMILES | MgrA DNA FP | S aureus helic
CC1CCCCN1c1ccc(N)cc1 (stereo not drawn) | 10.8 | 15.0
NCC[C@H](O)C(=O)NC1CC(N)C(OC2OC(CN)C(O)C(O)C2O)C(O)C1OC1OC(CO)C(O)C(N)C1O (stereo partly drawn) | 0.3 | x
NC(=O)c1ccccc1NCC(=O)c1ccc(F)cc1 | 6.0 | x
CS(=O)(=O)N(c1cccc(C#N)c1)S(C)(=O)=O | 0.8 | x

These rows are one share of the data; count on the stated rates, not on these rows.
